GIV Gai3 FP = inhibitors of GIV peptide binding to Galpha-i3, primary screen, biochemical, fluorescence polarization, FITC-GIV GBA peptide, rat Galphai3; Guanine nucleotide-binding protein G(i) subunit alpha-3 (Rattus norvegicus), P08753; 90 min; active compounds read low; scaled: aluminum fluoride 0%, vehicle 100%; percent of control (FP), % (test concentration not listed); 0.42% of 210,000 active; AID 1224905, 2016;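 active = replicate mean at 85% of control or lower, very high polarization wells dropped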;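 also: lower values mean more displacement of the GIV peptide from Galpha-i3; wells of about 15 µL received 100 nL stock; the first replicate is given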
Target sequence (P08753 whole entry, looked up): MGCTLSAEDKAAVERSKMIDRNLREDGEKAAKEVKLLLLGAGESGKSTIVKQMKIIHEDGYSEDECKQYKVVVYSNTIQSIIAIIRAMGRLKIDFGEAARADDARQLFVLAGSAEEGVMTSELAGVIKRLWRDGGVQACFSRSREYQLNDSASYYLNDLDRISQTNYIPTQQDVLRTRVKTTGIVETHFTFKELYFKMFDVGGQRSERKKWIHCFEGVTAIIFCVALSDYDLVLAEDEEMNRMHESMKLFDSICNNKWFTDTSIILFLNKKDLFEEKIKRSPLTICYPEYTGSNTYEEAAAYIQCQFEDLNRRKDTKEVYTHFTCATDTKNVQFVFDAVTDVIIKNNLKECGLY
HCMV NEC inh = inhibitors of HCMV UL50-UL53 interaction, biochemical, HTRF; HCMV UL50-UL53 nuclear egress complex (human cytomegalovirus); normalized percent inhibition; inhibition, % (no concentration beside the values); 0.15% of 190,000 active; AID 1918969, 2023;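 active = both replicates at 50% or more, plus weaker picks with an unusually low signal ratio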;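 also: stock transfer was 100 nL into about 20 µL; 0% = negative control wells and 100% = wells with untagged competitor protein; inactives centre near -12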
Sa growth 42C = S. aureus growth inhibition at 42 and 30 °C, primary screen, LtaS inhibitor project, RN4220, two temperatures | OD600, 20 h, 42 °C; active compounds read low | relative growth, % (test concentration not listed) | 0.53% of 170,000 active | AID 720641, 2013;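 active = growth at 42 °C up to 50% and 20 or more points under that at 30 °C, or under 10% at both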;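 also: 300 nL library stock went into each well; scaled to the means of positive and negative controls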
Sa growth 42C second temp = further read-out of Sa growth 42C, marked with its call; relative growth, %; measured here: growth at 30 °C;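 optical density after 20 h as mean of two plates; 100% = untreated growth and lower means inhibition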
* hit, by the source's call; / = no result given; & = joins results of further samples.

SMILES	GIV Gai3 FP	HCMV NEC inh	Sa growth 42C	Sa growth 42C second temp
O=C(NCc1ccc2c(c1)CCO2)c1cccs1	100	5	99	82
Cc1cc2c(cc1S(=O)(=O)N1CCC(C)CC1)OCC(=O)N2	112	/	119	89
OC(c1ccc(Cl)cc1)c1nnc(-c2ccccc2)o1 (stereo unspecified)	/	-30	114	89
CCN(CC)S(=O)(=O)c1ccc(-c2nc(C#N)c(N3CCN(C)CC3)o2)cc1	102	-67	/	/
CCOc1ccccc1CNC(=O)C1CCN(S(=O)(=O)c2c(C)noc2/C=C/c2ccccc2F)CC1	97	/	96	93
CCOc1ccc(CN(C2CC2)S(=O)(=O)c2ccc(S(=O)(=O)N(C)C)cc2)cc1	96	-7	105	83
C=CCn1c(=S)sc2c(=O)n(Cc3cccc(C(F)(F)F)c3)cnc21	/	-15	99	82
CSc1ccccc1NC(=O)C1CC1C (stereo unspecified)	/	-12	92	94
Cc1csc(C(C#N)C(=O)CSc2nnc(Nc3cccc(F)c3)s2)n1 (stereo unspecified)	/	-19	77	89
CC1CCCC/C1=N\NC(N)=O (stereo unspecified)	/	-4	88	93
COc1ccc(OCC(=O)NCC(=O)O)cc1	/	-5	114	91
COC(=O)CN1CC(=O)NC(=O)C1	/	1	92	96
CCCOc1nc(N)c(C#N)c(-c2ccccc2F)c1C#N	104	8	115	78
O=C(NCc1ccc(F)cc1)c1cccc2c1C(=O)N(Cc1cccnc1)C2	103	-11	96	69
COc1ccc(S(=O)(=O)Nc2c(C)n(C)n(-c3ccccc3)c2=O)cc1Br	106	-56	93	85

Entries of single compounds from above. Screens in order: GIV Gai3 FP, HCMV NEC inh, Sa growth 42C, Sa growth 42C second temp
Listed for CCOc1ccc(CN(C2CC2)S(=O)(=O)c2ccc(S(=O)(=O)N(C)C)cc2)cc1 → 96, -7, 105, 83
Listed for O=C(NCc1ccc(F)cc1)c1cccc2c1C(=O)N(Cc1cccnc1)C2 → 103, -11, 96, 69

The list continues.
SMILES	GIV Gai3 FP	HCMV NEC inh	Sa growth 42C	Sa growth 42C second temp
COc1ccccc1N1CCN(C(=O)c2cc(N(C)S(=O)(=O)c3ccccc3)ccn2)CC1	94	-8	/	/
O=C(NCC(=O)c1cccs1)NC1CCCC1	/	0	93	98
CCCC(C)C(=O)Nc1nnc(C)s1 (stereo unspecified)	/	-11	100	82
O=C(Nc1ccccc1C(=O)NCc1ccccc1)c1ccccc1	104	/	102	87
COc1cc(NC(=O)c2cc(C3CC3)nc3c2c(C)nn3-c2ccc(C)cc2)cc(OC)c1	100	/	81	84
Cc1cc(-c2cc(S(=O)(=O)N3CCCCC3C)c(C)s2)on1 (stereo unspecified)	102	-27	/	/
O=C(CN1C(=O)c2ccccc2C1=O)NCC(F)(F)F	/	-34	104	89
S=c1[nH]c2c(s1)sc1ccccc12	98	14	36	28
O=C(c1cccc(C(F)(F)F)c1)N1CCN(c2cccc3[nH]ccc23)CC1	99	-9	91	84
CCc1ccc(S(=O)(=O)c2cn(C)c3ccccc3c2=O)cc1	98	/	77	72
O=c1c(N2CCCCC2)csc2ccc(F)cc12	106&106	-46	89	75
N#Cc1ccccc1Cn1cc(C=C2C(=O)NC(=O)NC2=O)c2ccccc21	63*	-20	93	92
CCCCNC(=O)C1CCC(CNS(=O)(=O)c2ccccc2)CC1 (stereo unspecified)	99	-7	99	92
Cc1ccc(Nc2nc(Oc3ccc(=O)n(-c4ccccc4)n3)nc(N(C)C)n2)cc1	104	4	116	102
N#CCc1c(C#N)c(N)nc(N2CCN(Cc3ccc4c(c3)OCO4)CC2)c1C#N	/	-16	81	85
CCC1c2[nH]c3ccccc3c2CCN1C(=O)c1ccc(Cl)cc1 (stereo unspecified)	106	-27	92	87
Cc1nc(N2CCOCC2)c2c(C(=O)NCc3ccc(Cl)cc3)c(C)oc2n1	100	/	106	86
COc1ccc(C2C3=C(CC(c4cccc([N+](=O)[O-])c4)CC3=O)Nc3ccccc3N2C(C)=O)cc1OC (stereo unspecified)	102	-42	/	/
COc1ccc(C(=O)N2CCc3ccccc32)cc1OC	/	2	91	93
Cc1cccc(NC(=O)C2CCCN(S(=O)(=O)c3c(C)noc3/C=C/N(C)C)C2)c1C (stereo unspecified)	115	-30	114	83
COc1ccccc1CNC(=O)c1cc2c(=O)n(Cc3cccs3)ccc2nc1C	95	/	93	104
CCc1nc(NCC2CCCO2)c(C#N)c2c1COC(C)(C)C2 (stereo unspecified)	99	-11	90	91
O=C(COC(=O)c1ccc2c(=O)n3c(nc2c1)CCCCC3)Nc1ccc2c(c1)OCCO2	/	-32	98	94
Cc1nc(-n2nc(C)c(CCC(C)C)c2C)sc1C(=O)Nc1ccc(Cl)cc1	101	-4	88	89
Nc1ncnc2c1ncn2CCNCc1ccc2c(c1)OCO2	111	-7	104	96
Cc1ccc(S(=O)(=O)NCCc2cccs2)cc1	98	5	101	87
Cc1nc(-c2ccncc2)nc(NCCNc2ccc(C(F)(F)F)cn2)c1Cl	100	-36	97	85
CCOC(=O)c1c(-c2ccccc2)csc1NC(=O)c1cc(-c2ccc(Br)cc2)on1	104	10	101	96
NCC(c1ccco1)N1CCOCC1 (stereo unspecified)	101	-6	101	95
CCOc1cc(-c2ccc(F)cc2)nc2ccc(C(=O)Nc3ccccc3O)cc12	113	-3	/	/

Of the compounds above, 5 contain a Cl atom:
SMILES	GIV Gai3 FP	HCMV NEC inh	Sa growth 42C	Sa growth 42C second temp
OC(c1ccc(Cl)cc1)c1nnc(-c2ccccc2)o1 (stereo unspecified)	/	-30	114	89
CCC1c2[nH]c3ccccc3c2CCN1C(=O)c1ccc(Cl)cc1 (stereo unspecified)	106	-27	92	87
Cc1nc(N2CCOCC2)c2c(C(=O)NCc3ccc(Cl)cc3)c(C)oc2n1	100	/	106	86
Cc1nc(-n2nc(C)c(CCC(C)C)c2C)sc1C(=O)Nc1ccc(Cl)cc1	101	-4	88	89
Cc1nc(-c2ccncc2)nc(NCCNc2ccc(C(F)(F)F)cn2)c1Cl	100	-36	97	85

Continued.
SMILES	GIV Gai3 FP	HCMV NEC inh	Sa growth 42C	Sa growth 42C second temp
Cc1oc(S(=O)(=O)N2CCOCC2)cc1-c1nc(-c2ccc(C(F)(F)F)cc2)no1	111	-11	102	90
CN(C)S(=O)(=O)N(CC(=O)NCCSCc1c(F)cccc1Cl)c1ccccc1	99	-26	109	85
CC(C)c1ccc(NC(=O)C(c2ccccc2)N(C)C(=O)Cc2c[nH]c3ccccc23)cc1 (stereo unspecified)	98	-10	/	/
Cc1ccc(S(=O)(=O)N2CCCc3cc(NC(=O)c4ccc(Cl)cc4)ccc32)cc1	102	/	113	90
Cc1onc(-c2ccccc2Cl)c1C(=O)N1C=Cc2ccccc2C1C#N (stereo unspecified)	99	-8	107	100
CC(=O)N1c2ccccc2C(N(C(=O)c2ccc([N+](=O)[O-])cc2)c2ccccc2)CC1C (stereo unspecified)	103	-43	/	/
O=C(O)c1ccc(-n2cnc3ccccc3c2=O)cc1	/	-25	111	84
COc1ccc(NC(=O)c2c[nH]c(=O)[nH]c2=O)cc1	/	-25	72	94
Cn1c(=O)c2c(-c3cccc(Br)c3)n(CCO)cc2n(C)c1=O	101	-4	105	87
CCCSc1nc2c(c(=O)[nH]1)C(c1ccc(O)c(OCC)c1)CC(=O)N2 (stereo unspecified)	98	11	102	88
Cc1ccc(S(=O)(=O)NCc2csc(-c3ccccc3)n2)c(C)c1	100	/	98	77
CN(C)c1ccc(CNc2nc(-c3ccco3)nn2S(=O)(=O)c2ccc3ccccc3c2)cc1	102	-14	114	96
COc1ccc(-c2noc(CNC(=O)c3ccc(C)cc3C)n2)cc1OC	107	-36	105	91
O=C(Nc1ccccc1C(=O)O)c1cccc(Cl)c1	104	-16	86	46
S=c1[nH]nc(COc2ccccc2Cl)o1	/	-4	103	79
COc1ccccc1CNC(=O)C1CCN(c2nc3ccc(C)cc3[nH]2)CC1	103	/	88	77
Cc1nn2c(-c3cccc(NC(=O)c4ccccc4)c3)nnc2c2ccccc12	106	-66	113	92
O=C1CN(c2ccccc2F)C(=O)CN1/N=C/c1cccs1	112	-17	100	95
CCSc1ccccc1C(=O)NCCCn1ccnc1	109	-1	86	91
Cc1ccccc1Nc1ncccc1C(=O)N1CCOCC1	102	-34	119	93
CCOC(=O)c1cc2occc2n1CCc1ccccc1	105	-4	88	74
C=CCN1C(=O)/C(=C\c2ccccc2)SC1=S	104	/	102	86
CCOc1ccc(C(=O)Nc2ccc(-c3nc4ccccc4s3)c(C)c2)cc1OCC	95	/	129	92
N#CSc1ccc(NCCO)cc1C(F)(F)F	104	-10	14	11
O=c1oc2c3c(ccc2c2c1CCC2)OCN(c1ccccc1)C3	106	/	77	60
O=C(c1ccccc1)N1CCN(c2cccc(Cl)c2)CC1	/	-1	79	93
CCOC(=O)CSC1=C(C#N)C(c2ccccc2OCC)C(C(=O)OCC)C(=O)N1 (stereo unspecified)	101	-22	/	/
COc1cc(/C=c2\sc3nc4c(C)c(C)ccc4n3c2=O)ccc1OC(C)C(=O)O (stereo unspecified)	115	-33	/	/
Cc1ccc(NC(=O)Cn2nc(C(F)(F)F)c3c2CCCC3)cc1	110	-10	90	104
O=c1c(S(=O)(=O)c2cc(F)cc(F)c2)c[nH]c2cc(Cl)c(F)cc12	100	-8	/	/
O=C(Nc1ccccc1F)c1ccc(-c2ccccc2)s1	102	2	100	93
COc1ccc(-c2nonc2NC(=O)C(C)Oc2ccc(Cl)c(C)c2)cc1C (stereo unspecified)	106	17	/	/
CCOC(=O)C(C)Sc1nc(-c2cccs2)ccc1C#N (stereo unspecified)	/	-3	89	109
Cc1nc(C(F)(F)F)[nH]c(=O)c1C	99	5	97	105
N#Cc1cc(Cc2ccc(N)c(C#N)c2)ccc1N	/	1	72	83
Cc1cc(C)c2c(n1)SCC(=O)N2CC(=O)N1CCN(C)CC1	99	4	106	86
O=C(NC1CCCCC1)c1cc(-c2ccccc2)nc2ccccc12	97	/	115	86
CN1CCN(NC(=O)Cc2ccccc2Cl)CC1	106	-2	118	109
CC1(C)CC(OC(=O)c2ccccc2)CC(C)(C)N1	98	-8	107	91
CN/N=C/c1ccc(C#N)cc1	/	-64	92	91
COc1ccc(/C(O)=C2\C(=O)C(=O)N(CCN3CCNCC3)C2c2ccccc2)cc1 (stereo unspecified)	100	-29	88	85
O=c1[nH]ncc2c1[nH]c1ccccc12	105	-1	97	78
O=c1c2ccccc2n2c(=O)n(Cc3cccc(F)c3)nc2n1CCc1ccccc1	97	-30	/	/
CCOc1ccc(NC(=O)c2c(N)sc3c2CCC3)cc1	/	-24	81	85
CCn1cc(C(=O)NCc2ccc(C)cc2)c(=O)c2cc(S(=O)(=O)N(C)C3CCCCC3)ccc21	102	-34	95	86

Quoted at random: 4 records from the list, in no set order.
SMILES	GIV Gai3 FP	HCMV NEC inh	Sa growth 42C	Sa growth 42C second temp
N#Cc1cc(Cc2ccc(N)c(C#N)c2)ccc1N	/	1	72	83
Cc1nc(C(F)(F)F)[nH]c(=O)c1C	99	5	97	105
CCOC(=O)C(C)Sc1nc(-c2cccs2)ccc1C#N (stereo unspecified)	/	-3	89	109
COc1ccc(/C(O)=C2\C(=O)C(=O)N(CCN3CCNCC3)C2c2ccccc2)cc1 (stereo unspecified)	100	-29	88	85

More records follow.
SMILES	GIV Gai3 FP	HCMV NEC inh	Sa growth 42C	Sa growth 42C second temp
Cc1sc2c(c1C)c(=O)n(Cc1ccccc1)c(=O)n2CC(=O)Nc1cccc(Cl)c1	101	-1	85	87
O=C(COC(=O)c1cncc(Br)c1)NCc1ccc(F)cc1	/	-13	82	94
O=c1[nH]c(CSc2cccc[n+]2[O-])nc2ccccc12	/	-24	112	65
O=c1c(-c2ccc3c(c2)OCCO3)coc2cc(OC3OC(CO)C(O)C(O)C3O)ccc12 (stereo unspecified)	104	-27	/	/
Oc1ccccc1/C=N/C1=NNC(c2ccccc2)=CS1	/	0	89	95
O=C(c1ccccc1C(F)(F)F)N1CCCc2ccccc21	/	-20	110	97
CCOC(=O)c1ccc(-n2c(-c3ccc(C)cc3)c(C)n3c4c(=O)n(C)c(=O)n(C)c4nc23)cc1	107	-46	89	88
CCC(=O)Nc1ccc(Cl)cn1	94	-22	89	100
O=c1nc(SCc2ccc(Cl)cc2)c2c(n1C1CCCCC1)CCC2	106	-19	/	/
CC(NS(=O)(=O)c1ccc(N)cc1)C1CC2CCC1C2 (stereo unspecified)	/	-12	96	89
CCN(c1ccccc1)S(=O)(=O)c1ccc(N)cc1	105	-15	102	93
COc1ccc(-c2nc(CNS(=O)(=O)c3ccc(Br)cc3)cs2)cc1	102	-13	119	92
CCOC(=O)c1c[nH]c2c(ccc3ccccc32)c1=O	104&92	-13&-10	90&96	84&91
COc1ccc(CCn2c(=O)c3cccnc3n(CC(=O)Nc3ccc(C)c(F)c3)c2=O)cc1OC	106	-2	105	88
O=S1(=O)c2cccc3cccc(c23)N1CC1CN(Cc2ccccc2)CCO1 (stereo unspecified)	/	-11	203	88
COc1cccc(CNC(=O)CCc2nnc3n(C)c(=O)c4sccc4n23)c1	104	3	93	96
O=C(O)C1CC(=O)N(CCCN2CCOCC2)C1 (stereo unspecified)	100&103	-2&-23	93	83
CS(=O)(=O)c1ccc2nc(NC(=O)c3ccc(S(=O)(=O)N4CCOCC4)cc3)sc2c1	103	-24	/	/

Assay outcomes as filed in PubChem.
